Screens: PubChem, Vanderbilt University
GIRK2 activ = GIRK2 channel activation. P48051. HEK293-GIRK2 thallium flux, Thallos fluorescence. calls only for hits at 25 µM. 63,000 tested, 0.05% active. AID 1259325;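 active = among the strongest 0.2% of first-round signals and kept after retests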;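 also: first round at about 10 µM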
Target sequence (P48051 whole entry, looked up): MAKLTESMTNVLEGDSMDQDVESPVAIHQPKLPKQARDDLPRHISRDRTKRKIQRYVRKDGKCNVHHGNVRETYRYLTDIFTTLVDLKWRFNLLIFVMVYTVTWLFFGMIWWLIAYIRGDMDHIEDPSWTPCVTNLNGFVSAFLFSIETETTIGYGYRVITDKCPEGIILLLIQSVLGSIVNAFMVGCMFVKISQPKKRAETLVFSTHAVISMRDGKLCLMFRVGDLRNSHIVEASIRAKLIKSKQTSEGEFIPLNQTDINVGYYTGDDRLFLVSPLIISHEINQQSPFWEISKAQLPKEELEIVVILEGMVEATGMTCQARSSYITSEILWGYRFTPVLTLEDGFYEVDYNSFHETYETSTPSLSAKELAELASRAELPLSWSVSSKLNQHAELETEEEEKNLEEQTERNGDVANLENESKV
Calls only. Some of the compounds tested. The share of hits here may be higher or lower than overall.

O=C(c1ccco1)N1N=C(c2ccco2)CC1c1ccc(Cl)cc1 (centres undefined) was read as GIRK2 activ inactive.
Cc1ccc(NC(=O)Cc2cc(=O)[nH]c(SCc3ccc(F)cc3)n2)cc1C was read as GIRK2 activ inactive.
O=C(CN1CCN(CC(O)C2CC2)CC1)NCc1ccccc1 (centres undefined) was read as GIRK2 activ inactive.
`O=C(NCC1(c2ccc(F)cc2)CC1)Oc1ccccc1` gave GIRK2 activ inactive.
Screening Cc1nc(-n2cccc2)sc1C(=O)N1CC2(COC(C)(C)OC2)C1 returned GIRK2 activ inactive.
`COc1ccc(CCNC(=O)N(CCc2cccs2)Cc2ccco2)cc1` gave GIRK2 activ inactive.
`CCOC(=O)Cc1csc(NC(=O)CSc2nnc(CCc3nc4ccccc4[nH]3)o2)n1` gave GIRK2 activ inactive.
CCN1C(=O)C2ON(c3ccccc3)C(c3cccs3)C2C1=O (centres undefined) was read as GIRK2 activ inactive.
For COc1ccc(-c2cn3c(C(=O)N4CCN(C/C=C/c5ccccc5)CC4)csc3n2)cc1 the results were GIRK2 activ inactive.
O=C(Nc1ccc(Cl)c(N2CCCS2(=O)=O)c1)C1CC(=O)N(c2ccccc2)C1 (centres undefined) was read as GIRK2 activ inactive.
Screening Cn1c(=O)c2c(nc3n(CCN4CCOCC4)c(C(C)(C)C)cn23)n(C)c1=O returned GIRK2 activ inactive.
For Cc1cccc(NC(=O)CN2CCN(Cc3nc4ccccc4[nH]3)CC2)c1C the results were GIRK2 activ inactive.
For COc1cccc(-n2c(C)c(C)n3c4c(=O)n(Cc5ccccc5)c(=O)n(C)c4nc23)c1 the results were GIRK2 activ inactive.
Screening O=C(Nc1ccc(-n2nnn(CC(=O)N3CCOCC3)c2=O)cc1)c1cnccn1 returned GIRK2 activ inactive.
Screening CC(C)(C)c1csc(CN2CCN(C(=O)c3ccco3)CC2)n1 returned GIRK2 activ inactive.
Screening CSc1ccccc1C(=O)N1CCN(CCNC(=O)c2ccsc2)CC1 returned GIRK2 activ inactive.
For C#CCn1c(C2CC(=O)N(c3cccc(C)c3)C2)nc2ccccc21 (centres undefined) the results were GIRK2 activ inactive.
O=S(=O)(Nc1cnc(N2CCN(c3ccccc3)CC2)nc1)c1ccc(F)c(F)c1 was read as GIRK2 activ inactive.
For COc1cc(/C=C2\Oc3cc(OCC(=O)OC(C)C)cc(C)c3C2=O)cc(OC)c1OC the results were GIRK2 activ inactive.
Cc1nc2sc(C)c(C)n2c(=O)c1NC(=O)c1c(F)cccc1Cl was read as GIRK2 activ inactive.

Copied from the listing, 2 compounds:
Screening O=C(Nc1ccc(-n2nnn(CC(=O)N3CCOCC3)c2=O)cc1)c1cnccn1 returned GIRK2 activ inactive.
Screening CC(C)(C)c1csc(CN2CCN(C(=O)c3ccco3)CC2)n1 returned GIRK2 activ inactive.

Continuation.
For CC(=O)N1CCN(c2oc(-c3ccc(COc4ccccc4)o3)nc2C#N)CC1 the results were GIRK2 activ inactive.
Screening CCNC(=O)CSc1cnn(CC(=O)Nc2ccc(Cl)cc2F)c(=O)c1Cl returned GIRK2 activ inactive.
For CCOC(=O)N1CCc2c(sc(NC(=O)/C=C/c3ccccc3)c2-c2nc3ccccc3s2)C1 the results were GIRK2 activ inactive.
Cc1noc(C)c1CC(=O)Nc1ccccc1NC(=O)c1ccccc1F was read as GIRK2 activ inactive.
Screening O=C(CCCc1ccccc1)N1CCC(Cn2ccnc2-c2ccccc2)CC1 returned GIRK2 activ inactive.
For COc1ccc(C2CCN(C(=O)Cn3c(=O)oc4ccccc43)C2)cc1 (centres undefined) the results were GIRK2 activ inactive.
Screening Cc1nc(-c2ccccc2F)sc1CNC(=O)Nc1cccs1 returned GIRK2 activ inactive.
Screening CCSC1=NCCN1S(=O)(=O)c1ccc(F)cc1 returned GIRK2 activ inactive.
Cn1nc(-c2ccccc2)cc1C(=O)NCCn1nc(C(F)(F)F)n(C)c1=O was read as GIRK2 activ inactive.
O=C(Cn1nc2c(c1NC(=O)c1ccc(Br)o1)CSC2)NCc1ccccc1 was read as GIRK2 activ inactive.
Cc1ccc(S(=O)(=O)NCCOc2ccccc2)c(C)c1 was read as GIRK2 activ inactive.
`CCOC(=O)N1CCN(Cc2cc(=O)oc3cc(C)c(C)cc23)CC1` gave GIRK2 activ inactive.
COc1ccc(C(=O)N2CCN(c3oc(-c4ccc(Cl)cc4)nc3C#N)CC2)cc1 was read as GIRK2 activ inactive.
For Nc1nc(N2CCCC2)ncc1S(=O)(=O)c1cccs1 the results were GIRK2 activ inactive.
`COc1ccc(-c2nn3c(N4CCCCC4)cc(C)nc3c2C)cc1OC` gave GIRK2 activ inactive.
`CCCc1ccc(S(=O)(=O)N(C)c2ccsc2C(=O)N2CCOCC2)cc1` gave GIRK2 activ inactive.
For O=S(=O)(NCCNc1ccc(Nc2cccnc2)nn1)c1ccc2c(c1)OCCO2 the results were GIRK2 activ inactive.
`COc1cccc(CNC(=O)c2cn(-c3cc(N4CCCC4)ncn3)cn2)c1` gave GIRK2 activ inactive.
COCCN(Cc1ccoc1)C(=O)c1ccc(S(=O)(=O)N(C)C)cc1 was read as GIRK2 activ inactive.
For O=C(CCc1ccccc1)N1CCN(c2ncnc3c2nnn3-c2ccc(Cl)cc2)CC1 the results were GIRK2 activ inactive.
For COC(=O)C(C)Oc1ccc2cc(-c3ccc(OC)cc3OC)c(=O)oc2c1 (centres undefined) the results were GIRK2 activ inactive.
For C#CCn1c(Cc2ccc(OC)c(OC)c2)nc2ccccc21 the results were GIRK2 activ inactive.
`O=C(CSc1nnc(CCc2nc3ccccc3[nH]2)o1)Nc1ccc(F)c(C(F)(F)F)c1` gave GIRK2 activ inactive.
For CC(C)Sc1ccc(CC(=O)NCC2(c3ccccc3)CCOCC2)cc1 the results were GIRK2 activ inactive.
COc1ccc(NC(=O)c2ccc3c(c2)CC(c2ccc(F)cc2)OC3=O)c(OC)c1 (centres undefined) was read as GIRK2 activ inactive.
Screening Cn1cccc1CN(Cc1cccs1)C(=O)c1cnccn1 returned GIRK2 activ inactive.
CSc1ccc(-c2noc(CSc3nc4ccccc4c(=O)n3Cc3cccs3)n2)cc1 was read as GIRK2 activ inactive.
O=C1/C(=C/c2cccc(O)c2)SC(=S)N1c1ccccc1O was read as GIRK2 activ inactive.
Screening COc1cc(-n2c(=O)c3ccccc3n(CC(=O)c3ccccc3)c2=O)cc(OC)c1OC returned GIRK2 activ inactive.
CC(Oc1ccc2c(c1)OCO2)C(=O)NCCn1ncccc1=O (centres undefined) was read as GIRK2 activ inactive.
For CCOC(=O)c1ccc(NC(=O)CN2CCc3[nH]c4c(C)c(Cl)ccc4c(=O)c3C2)cc1 the results were GIRK2 activ inactive.
For Cc1nn(C2CCS(=O)(=O)C2)c(C)c1N1CCN(C(=O)C2CCN(S(C)(=O)=O)CC2)CC1 (centres undefined) the results were GIRK2 activ inactive.
Screening CCn1cc(C(=O)Nc2nnc(C)s2)c(=O)c2cc(OC)ccc21 returned GIRK2 activ inactive.
For COc1ccc(NC(=O)Cn2c(N)nc(C)cc2=O)cc1F the results were GIRK2 activ inactive.
For COCCN1CCC(CNC(=O)c2nc3ccccc3s2)CC1 the results were GIRK2 activ inactive.
For Cc1c(C(=O)Nc2ccc(S(N)(=O)=O)cc2)nnn1-c1ccc(Cl)cc1 the results were GIRK2 activ inactive.
Screening COc1ccc(NC(=O)CN2N=C(c3nc(-c4ccc(F)cc4)no3)CCC2=O)cc1 returned GIRK2 activ inactive.
Screening CC(=O)OC1C(O)C2C(C)C3=CC(=O)OC3(O)CC2C2(C)CCCC(C)(CO)C12 (centres undefined) returned GIRK2 activ inactive.
`Cc1nc2n(c(=O)c1C)C(CC(=O)N1CCCC(c3nnc(C(F)(F)F)o3)C1)CS2` (centres undefined) gave GIRK2 activ inactive.
Screening O=C(Cc1ccc(NC(=O)c2nc3ccccc3s2)cc1)NCc1cccs1 returned GIRK2 activ inactive.
FC(F)(F)Oc1ccc(Nc2ncnc3[nH]ncc23)cc1 was read as GIRK2 activ inactive.
Screening CCC1=C(C(=O)OC)C(c2ccc(C)o2)n2ncnc2N1 (centres undefined) returned GIRK2 activ inactive.
`COC(=O)c1ccc(C(=O)NCCc2csc(-n3nc(C)cc3C)n2)cc1` gave GIRK2 activ inactive.
Screening CC1=C(C(N)=O)C(c2ccc(-c3ccccc3)cc2)n2ncnc2N1 (centres undefined) returned GIRK2 activ inactive.
For O=C(c1cccc(Cl)c1)N1CCN(Cc2ccsc2)CC1 the results were GIRK2 activ inactive.
Screening Cc1nc(OCC(=O)Nc2cc(C(F)(F)F)ccc2Cl)cc(-n2cccn2)n1 returned GIRK2 activ inactive.
Cc1ccc(OCC(O)CN2CCN(Cc3ccccc3)CC2)cc1 (centres undefined) was read as GIRK2 activ inactive.
Cn1c(=O)n(CCN2CCCCC2)c(=O)c2c1nc1n2CCCN1c1ccccc1 was read as GIRK2 activ inactive.
`Cc1ccc(NC(=O)Cn2c(C)nc3c(c2=O)CN(Cc2cccc(C)c2)CC3)cc1` gave GIRK2 activ inactive.
Cn1cc(C(=O)N2CCN(c3ccc(-c4noc(C(F)(F)F)n4)cn3)CC2)nn1 was read as GIRK2 activ inactive.
`COc1ccccc1NC(=O)Cn1nc2c(-c3nc(-c4ccccc4)no3)cccn2c1=O` gave GIRK2 activ inactive.
`CCC(CC)C(=O)Nc1cc(C)nn1-c1nc(-c2ccc(OC)c(OC)c2)cs1` gave GIRK2 activ inactive.
Screening CCCCC/C=C\CCCCCCCCCCCCC(=O)O returned GIRK2 activ inactive.
Cc1cccc(NC(=O)NCCOc2ccccc2)c1 was read as GIRK2 activ inactive.
`O=C(NCc1cccc2ccccc12)Nc1ccccc1NC(=O)c1ccccc1F` gave GIRK2 activ inactive.
Screening CS(=O)(=O)N1CCC(C(=O)NCC2COC3(CCCCC3)O2)CC1 (centres undefined) returned GIRK2 activ inactive.
Screening COc1ccc(-n2nnnc2CNS(=O)(=O)c2ccc(Cl)cc2)cc1 returned GIRK2 activ inactive.
`O=C(NCCc1ccncc1)c1cc(-c2ccc(F)cc2)n[nH]1` gave GIRK2 activ inactive.
Screening CCC(CC)C(=O)Oc1c(S(=O)(=O)c2ccc(C)cc2)c(C)nn1C(C)(C)C returned GIRK2 activ inactive.
O=C(Nc1ccc(Nc2cc(-n3cccn3)ncn2)cc1)Nc1ccc2c(c1)OCCO2 was read as GIRK2 activ inactive.
Cc1nc(Nc2ccccn2)cc(N2CCN(C(=O)Nc3ccc(F)cc3F)CC2)n1 was read as GIRK2 activ inactive.
COc1cc(/C=C/c2ccncc2)ccc1OC(=O)c1ccc(Br)o1 was read as GIRK2 activ inactive.
COc1ccc(C(=O)Nc2cc(C)nn2-c2nc(-c3ccc(OC)c(OC)c3)cs2)cc1 was read as GIRK2 activ inactive.
Screening O=C1/C(=C/c2ccccc2)Oc2c1ccc1c2CN(Cc2cccnc2)CO1 returned GIRK2 activ inactive.
`O=C(NCCCc1ccccc1)NCCN1CCN(c2ccccc2F)CC1` gave GIRK2 activ inactive.
CCOc1ccc(-c2cc(C(=O)N3CCC(NC(=O)c4ccccc4F)CC3)[nH]n2)cc1 was read as GIRK2 activ inactive.
For CSc1ccc(CNC(=O)Cn2c(C)cc(C)c(C#N)c2=O)cc1 the results were GIRK2 activ inactive.
Cc1cc(C)n(-c2nc(CCNC(=O)c3cc(C)on3)cs2)n1 was read as GIRK2 activ inactive.
COc1ccc(NC(=O)CSc2cc(N3CCCCC3)ncn2)cc1OC was read as GIRK2 activ inactive.
Screening CCOc1cccc2cc(C(=O)N3CCCCCC3)c(=O)oc12 returned GIRK2 activ inactive.
For COc1ccccc1C(O)Cn1cc(C(=O)NCC2CC2)nn1 (centres undefined) the results were GIRK2 activ inactive.
COc1ccc(C(CNS(=O)(=O)c2ccc([N+](=O)[O-])cc2)N2CCN(C)CC2)cc1 (centres undefined) was read as GIRK2 activ inactive.
Screening Cc1cccc(Cn2c(=O)c3c(nc4n(CC(C)C)c(C)c(C)n34)n(C)c2=O)c1 returned GIRK2 activ inactive.
For CC1(C)Cc2cccc(OCC(=O)NCc3nn(C4CCCC4)c(=O)c4ccccc34)c2O1 the results were GIRK2 activ inactive.
For Cc1cc(OCC(=O)N2CCN(c3ccccc3F)CC2)nc(-c2ccc(F)cc2)n1 the results were GIRK2 activ inactive.
O=S(=O)(c1ccc(F)c(Cl)c1)N1CCN(c2cc(N3CCOCC3)ncn2)CC1 was read as GIRK2 activ inactive.
For OC(COc1cccc2ccccc12)CN1CCN(c2ccc(F)cc2)CC1 (centres undefined) the results were GIRK2 activ inactive.
`CN1CCN(C(=O)C(=O)c2cn(CC(=O)N3CCOCC3)c3ccccc23)CC1` gave GIRK2 activ inactive.
Screening O=C(Nc1nc2c(s1)CN(S(=O)(=O)C1CC1)CC2)c1cc(-c2ccccc2)on1 returned GIRK2 activ inactive.
Screening COc1ccc(Cl)cc1NC(=O)NCCn1nc(C(F)(F)F)n(C)c1=O returned GIRK2 activ inactive.

Among those listed so far, 11 have a thiophene ring, fused or not:
`COc1ccc(CCNC(=O)N(CCc2cccs2)Cc2ccco2)cc1` gave GIRK2 activ inactive.
CCN1C(=O)C2ON(c3ccccc3)C(c3cccs3)C2C1=O (centres undefined) was read as GIRK2 activ inactive.
Screening CSc1ccccc1C(=O)N1CCN(CCNC(=O)c2ccsc2)CC1 returned GIRK2 activ inactive.
For CCOC(=O)N1CCc2c(sc(NC(=O)/C=C/c3ccccc3)c2-c2nc3ccccc3s2)C1 the results were GIRK2 activ inactive.
Screening Cc1nc(-c2ccccc2F)sc1CNC(=O)Nc1cccs1 returned GIRK2 activ inactive.
For Nc1nc(N2CCCC2)ncc1S(=O)(=O)c1cccs1 the results were GIRK2 activ inactive.
`CCCc1ccc(S(=O)(=O)N(C)c2ccsc2C(=O)N2CCOCC2)cc1` gave GIRK2 activ inactive.
Screening Cn1cccc1CN(Cc1cccs1)C(=O)c1cnccn1 returned GIRK2 activ inactive.
CSc1ccc(-c2noc(CSc3nc4ccccc4c(=O)n3Cc3cccs3)n2)cc1 was read as GIRK2 activ inactive.
Screening O=C(Cc1ccc(NC(=O)c2nc3ccccc3s2)cc1)NCc1cccs1 returned GIRK2 activ inactive.
For O=C(c1cccc(Cl)c1)N1CCN(Cc2ccsc2)CC1 the results were GIRK2 activ inactive.
